Source: PubChem (National Center for Advancing Translational Sciences (NCATS))
Marburg entry inh = inhibitors of Marburg virus binding or cell entry; Marburg virus pseudotyped entry inhibition, cell reporter; control for the full effect not named in the record; about a third of the inactives were read at about 46 µM; Potency, µM (highest dose often 37.8 µM), inactives show at the highest dose activity change, negative = inhibition, usual class: inhibitors; 1.8% of 300,000 active; active = well fitted inhibition curve with a large enough effect; inconclusive = small, poorly fitted or top-dose-only effect, or effect the other way; inactive = flat fitted curve, though single readings scatter; tested in HEK293 cells; about a fifth of its hits are not listed in these tables; note: % is set by controls: 0 for no effect and ±100 for the full control effect; luciferase read-out
SARS PLP yeast = SARS-CoV PLP inhibition in yeast. S. cerevisiae expressing SARS-CoV PLpro, growth rescue; control for the full effect not named in the record. Potency, µM (series often up to 32.9 µM), for inactives: at the highest dose activity, positive = growth rescue. 0.19% of 330,000 active. AID 485353; note: 0% is about no effect; nearly all actives have a fitted effect of over 55% in size; growth read by luminescence after 48 h
Lassa entry inh = Lassa virus entry inhibition; Lassa virus pseudotype entry inhibition, cell reporter; control for the full effect not named in the record; Potency, µM (series often up to 37.9 µM), without a hit: at the top dose activity change, negative = inhibition, usual class: inhibitors; 1.2% of 300,000 active; active means well fitted inhibition curve with a large enough effect; inconclusive means small, poorly fitted or top-dose-only effect, or effect the other way; inactive means flat fitted curve, though single readings scatter; tested in HEK293 cells; note: % is set by controls: 0 for no effect and ±100 for the full control effect; nearly all actives have a fitted effect of over 50% in size; luciferase read-out
Cruzain inh Det = blocks cruzain activity in presence of Triton detergent; AID 1478; P25779; Potency, µM, for the others: max response, negative = inhibition, most hits filed as inhibitors; 0.43% of 200,000 active; purified cruzain, Z-FR-AMC fluorescence, 0.01% Triton; active = well fitted curve in the direction sought with a large enough effect; inconclusive = small, poorly fitted or top-dose-only effect, or another doubt; inactive = no such curve, though single readings can be large; an effect the other way counts as inactive or inconclusive;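 note: plate controls were neutral wells for no effect and buffer without enzyme for full effect; nearly all actives have a fitted effect of over 40% in size; top concentration of the series not given in the record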
Target sequence (P25779 123-467 limits assumed): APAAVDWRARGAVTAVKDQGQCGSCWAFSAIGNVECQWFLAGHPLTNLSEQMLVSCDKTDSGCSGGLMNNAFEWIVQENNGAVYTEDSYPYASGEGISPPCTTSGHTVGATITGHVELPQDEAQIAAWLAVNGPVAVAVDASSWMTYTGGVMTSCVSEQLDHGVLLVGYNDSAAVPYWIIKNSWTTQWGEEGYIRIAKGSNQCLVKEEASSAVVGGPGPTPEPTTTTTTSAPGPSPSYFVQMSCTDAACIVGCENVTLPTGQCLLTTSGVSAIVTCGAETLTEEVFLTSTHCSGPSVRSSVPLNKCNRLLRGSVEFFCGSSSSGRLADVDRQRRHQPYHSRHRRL
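Sodium acetate buffer (100 mM, pH 5.5) containing 5 mM DTT and 0.01% Triton X-100 hosted 1.5 nM cruzain and test compound for 15 min at room temperature. Cleavage of 2 uM Z-FR-AMC was then tracked by fluorescence.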
Cruzain noTriton = cruzain (T. cruzi) inhibition without detergent; 2.3% of 200,000 active; AID 1476; purified cruzain, Z-FR-AMC fluorescence, no detergent; Potency, µM, without a hit: max response, negative = inhibition, hits mostly inhibitors; active = well fitted curve in the direction sought with a large enough effect; inconclusive = small, poorly fitted or top-dose-only effect, or another doubt; inactive = no such curve, though single readings can be large; an effect the other way counts as inactive or inconclusive;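 note: plate controls were enzyme without inhibitor for no effect and buffer without enzyme for full effect; nearly all actives have a fitted effect of over 40% in size; top concentration of the series not given in the record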
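Detergent-free condition (0.00005% Triton X-100) in acetate buffer pH 5.5 with DTT. 1.5 nM enzyme and compound were pre-mixed 15 min, then 2 uM Z-FR-AMC substrate added; reaction progress from fluorescence change between first and third reads (60 s).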
NS1 function inh = inhibitors of influenza NS1 protein function | AID 2326 | Potency, µM (series often up to 46.1 µM), for inactives: at the top dose activity, positive = more growth | S. cerevisiae slowed by influenza A NS1, growth recovery by OD600 | 0.4% of 270,000 active; note: actives are rising curves; nearly all actives have a fitted effect of over 50% in size
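Recovery from NS1-induced slow growth read by OD600 in budding yeast switched to galactose assay medium (pH 6.0, -URA) at 1:100 dilution. Compound 23 nl per well; the matching strain lacking NS1 serves as control.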
StopGo reporter = lowers the luciferase signal of an FMDV 2A StopGo reporter; 1.2% of 410,000 active; human cells with a luciferase reporter of 2A StopGo recoding; control for the full effect not named in the record; Potency, µM (titrated, usually from 57.9 µM), for the others: at the highest dose signal change, negative = less light; active = well fitted falling curve with a large enough effect; inconclusive = small, poorly fitted or top-dose-only effect; inactive = no such curve, though single readings can be large or run the other way; tested in HEK293T cells; note: % is set by controls: 0 for no effect and ±100 for the full control effect; nearly all actives have a fitted effect of over 45% in size; luciferase light after 4 h
RE007 growth inh = less growth of the S. pombe RE007 Vpr strain. Potency, µM (titrated, usually from 92.2 µM), for inactives: top-dose activity change, negative = less growth. 0.21% of 360,000 active. S. pombe RE007 Vpr strain, BacTiter-Glo ATP luminescence, 24 h; control for the full effect not named in the record; active = well fitted falling curve with a large enough effect; inconclusive = small, poorly fitted or top-dose-only effect; inactive = no such curve, though single readings can be large or run the other way;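 note: % is set by controls: 0 for no effect and ±100 for the full control effect; nearly all actives have a fitted effect of over 50% in size; the assay follows cell death caused by Vpr and the record does not say whether a fall means rescue or toxicity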
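Fission yeast RE007 carrying one integrated HIV-1 vpr copy, seeded at OD 0.01 in PMG+AL medium with 23 nL pinned compound. Grown 24 h at 30 degrees; viability read by BacTiter-Glo luminescence after 5 min.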
Starred values were filed as active, the others as inactive; ? = inconclusive; . = not tested or not shown; & = joins results of further samples; [ ] = dose if it differs, or a comment. Unless noted, calls come from the whole dose curve; as a rule, active means well fitted rising curve with a large enough effect; inconclusive means small, poorly fitted or top-dose-only effect; inactive means no such curve, though single readings can be large or run the other way. Potency is the fitted concentration of half-maximal effect. Compounds as they come, and some 4.8% of all compounds hit somewhere here.

A first look (2 entries):
SMILES	Marburg entry inh	SARS PLP yeast	Lassa entry inh	Cruzain inh Det	Cruzain noTriton	NS1 function inh	StopGo reporter	RE007 growth inh
CC1(C)CC(=O)C(Sc2ccccc2)=C(O)C1	?	-0.6%	3.2%[46.1 µM]	.	.	-1.5%	-14.2%	6.4%
O=C(Nc1ccc([N+](=O)[O-])cn1)c1cc(-c2cccc(Br)c2)nc2ccccc12	21.5%	2.0%	-9.1%	-4.6%	?	10.1%	-19.2%	-5.0%

The whole of this part, from the first entry:
SMILES	Marburg entry inh	SARS PLP yeast	Lassa entry inh	Cruzain inh Det	Cruzain noTriton	NS1 function inh	StopGo reporter	RE007 growth inh
CC1(C)CC(=O)C(Sc2ccccc2)=C(O)C1	?	-0.6%	3.2%[46.1 µM]	.	.	-1.5%	-14.2%	6.4%
O=C(Nc1ccc([N+](=O)[O-])cn1)c1cc(-c2cccc(Br)c2)nc2ccccc12	21.5%	2.0%	-9.1%	-4.6%	?	10.1%	-19.2%	-5.0%
CC1CC/C(=C\c2ccc3c(c2)OCO3)C(=O)/C1=C/c1ccc2c(c1)OCO2 (stereo not given)	-6.3%	8.0%	?	-5.7%	?	17.2%	?	-13.1%
O=C(NC(=S)NCCO)c1cn(-c2ccccc2)nc1-c1ccccc1	18.8%[46.1 µM]	2.5%	19.7%[46.1 µM]	.	.	.	-2.4%	1.9%
COc1ccc(Cn2c(N)c(C(=O)NCc3ccco3)c3nc4ccccc4nc32)cc1	?	6.3%	?	-12.2%	?	8.7%	-24.5%	20.2%
O=C(Cc1ccccn1)c1ccncc1	10.2%[46.1 µM]	.	?	.	.	.	-4.9%	-9.0%
Cc1ccccc1C(=O)NCCCNC(=O)c1cnccn1	1.9%[46.1 µM]	0.8%	11.6%	.	.	-4.5%	-8.4%	-1.1%
CC(C)Oc1ccc(CCc2n[nH]c(=S)n2-c2ccccc2)cc1	-9.1%[46.1 µM]	11.1%	?	.	.	.	-1.3%	7.0%
N=C1S/C(=C\c2ccc(-c3ccccc3C(=O)O)o2)C(=O)N1c1ccc2c(c1)OCO2	9.9%[46.1 µM]	4.4%	-8.4%	.	.	.	6.2%	-13.7%
Cc1ccc(Oc2ccc(-c3nc(N)nc(N)n3)cc2)cc1C	-2.7%	-44.0%	?	-3.9%	8.9%	-138.9%	-17.0%	-25.6%
Cc1cc(C)cc(N2C(=O)/C(=C\c3ccc(N4CCN(C)CC4)o3)C(=O)NC2=S)c1	?	-1.1%	-28.5%[46.1 µM]	.	.	1.3%	-12.6%	-9.3%
Cc1nc2ccccc2c2oc(C(=O)NCCCN3CCC(C)CC3)cc12	.	-9.5%	.	-0.9%	-16.2%	-22.7%	?	-7.1%
COC(=O)C1CCc2c(ccc3c2CCCC3)C1=O (stereo not given)	?	.	-11.3%[46.1 µM]	.	.	.	33.7%[activator]	-5.4%
O=C(NC1CCCCC1)C(c1ccc(F)cc1)N(Cc1ccco1)C(=O)c1ccccn1 (stereo not given)	?	0.8%	?	.	.	.	-1.4%	3.6%
CC(C)OCCCNC(=O)CCC(=O)NNc1nc2ccccc2c2nc(-c3ccccc3)nn12	-6.6%	?	16.1%	-5.0%	?	-1.3%	-2.7%	-2.8%
COc1ccccc1CNC(=O)COc1ccc(Br)c(C)c1	.	-11.5%	.	.	.	-68.5%	-16.8%	6.0%
CCN1CCN(CCc2nc3cc([N+](=O)[O-])ccc3n2C)CC1	1.7%[46.1 µM]	0.6%	15.7%	.	.	4.2%	-3.4%	-4.5%
Nc1nc(SCC(=O)NCCC(c2ccccc2)c2ccccc2)n[nH]1	?	0.5%	4.3%	-0.4%	2.4%	3.1%	-7.8%	15.8%
Cc1nn2c(=O)cc(COC(=O)c3cccc(NC(=O)c4cccs4)c3)nc2s1	.	.	20.3%[46.1 µM]	-0.3%	8.6%	.	10µM*	.
Cc1onc(-c2ccccc2)c1C(=O)Nc1nnc(N(C)Cc2ccccc2)s1	2.9%	2.9%	.	-4.6%	?	7.94µM*	-22.1%	3.5%
Cc1ccc(C(=O)Nc2nnc(S(=O)(=O)N3CCN(c4ccc(F)cc4)CC3)s2)cc1	?	6.1%	10.9%&11.7%[46.1 µM]	-1.4%	1.1%	16.0%	4.0%&30.7%	-13.9%
CN=C1S/C(=C\c2ccc(N3CCOCC3)c(F)c2)C(=O)N1C	-9.8%	5.5%	-5.8%	-1.4%	10.6%	9.2%	49.1%[activator]	18.1%
O=C(Nc1ncccc1Cl)c1ccccc1F	13.6%	-4.3%	16.2%	2.7%	2.8%	-8.7%	-2.2%	-3.1%
COc1cccc(NC(=O)COC(=O)CC(NC(N)=O)c2ccc(Cl)cc2)c1 (stereo not given)	?	-0.5%	-3.8%[46.1 µM]	.	.	-8.1%	-10.4%	4.6%
Cc1ccccc1C(=O)NCC(=O)OC(C)C(=O)NCc1ccco1 (stereo not given)	-0.9%	0.0%	?	.	.	.	-26.5%	-20.4%
COc1ccc(CN(CC2CCC(C(=O)O)CC2)C(=S)Nc2cc(C)cc(C)c2)cc1 (stereo not given)	14.5%[46.1 µM]	-2.8%	26.4%[46.1 µM]	.	.	.	-7.6%	4.6%
CCOC(=O)C1CCN(C(=O)c2ccc(OCC(=O)Nc3cccc(C(F)(F)F)c3)c(OC)c2)CC1	?	-8.0%	?	.	.	.	?	-11.6%
Clc1ccc(CNc2nc3ccccc3c3nc(-c4cccnc4)nn23)cc1	-8.1%[46.1 µM]	.	.	-0.2%	-5.0%	.	3.0%	.
Cc1cc(C(=O)NCCc2ccc(Cl)cc2)c2c(C)nn(-c3ccccc3)c2n1	.	.	13.3%[46.1 µM]	-0.4%	17.8%	.	-22.2%	.
CCOc1cc(C2Sc3ccccc3NC3=C2C(=O)c2ccccc23)ccc1O (stereo not given)	-5.5%[46.1 µM]	.	?	-6.3%	-4.9%	.	25.4%	.
CCN(CC)CCN1C(=O)C(=O)/C(=C(/O)c2c(C)[nH]c(C(=O)OC)c2C)C1c1ccc(OC)cc1 (stereo not given)	21.5%	-4.0%	18.8%	0.4%	-8.0%	5.0%	13.2%	-0.2%
Cc1nn(C(C)C(=O)N2CCCC2)c(=O)c2nn(-c3ccccc3)c(C)c12 (stereo not given)	.	2.2%	.	.	.	0.8%	-14.4%	-11.4%
O=C(C1=C[C@@H](c2coc3ccccc3c2=O)C[C@@H](OCc2ccc(CO)cc2)O1)N1CCN(Cc2ccccc2)CC1	.	-2.7%	.	.	.	-9.7%	-19.3%	3.3%
CCC(=O)N/N=C/c1ccc(OS(=O)(=O)c2ccccc2)cc1	?	2.6%	-2.9%	0.2%	3.9%	-4.4%	-3.8%	-2.4%
CCC1Oc2ccc(C)cc2N(CC(=O)N2CCCC2)C1=O (stereo not given)	.	4.8%	.	.	.	2.5%	-11.7%	5.2%
COc1ccc(/C=N/Nc2nc(N3CCCCC3)nc(N3CCCCC3)n2)cc1[N+](=O)[O-]	?	-0.5%	?	-7.4%	-27.4%	4.2%	-24.7%	2.5%
O=C(NCCCN1CCCC1)Nc1ccc(F)cc1	4.1%[46.1 µM]	0.3%	-0.1%[46.1 µM]	.	.	2.4%	5.7%	1.1%
Cc1ccc2c(Cl)cc(Cl)c(OCC(=O)O)c2n1	-0.8%	0.6%	-17.3%	.	.	.	-16.4%	22.8%
CCOc1ccccc1NC(=O)CSc1n[nH]c(N)n1	.	-0.6%	.	.	.	5.8%	-7.4%	-3.7%
CN(C)S(=O)(=O)c1cccc(NC(=O)COC(=O)c2ccc3c(c2)OCO3)c1	?	-1.8%	?	-3.5%	6.2%	-4.4%	3.7%	0.8%
CNC(=O)c1c[nH]c2ccc(S(=O)(=O)Nc3ccccc3F)cc2c1=O	.	-2.3%	.	.	.	7.7%	10.5%	2.5%
Oc1ccc(-c2nc(-c3ccc(F)cc3)c(-c3ccncc3)[nH]2)cc1	5.01µM*	.	?	-4.8%&-13.5%	1.6%&9.5%	-0.3%	?	0.7%[18.4 µM]
CCOC(=O)C1CCN(C(=O)CC2C(=O)N(Cc3ccccc3)C(C)c3nc4ccccc4n32)CC1 (stereo not given)	-1.0%&-11.7%	3.6%	19.4%[14.3 µM]	-18.4%	-27.0%	-12.9%	14.4%	2.3%
O=C(NCc1ccco1)C(c1ccc(F)cc1)N(CC1CCCO1)C(=O)Cn1nnc2ccccc21 (stereo not given)	11.9%&11.9%[46.1 µM]	5.1%	-17.4%	9.9%	-9.6%	-2.5%	-2.2%	6.7%
Nc1cc(N)nc(SCCN2CCCCC2)n1	-13.4%	-0.5%	-3.8%	2.3%	10.1%	-7.1%	18.6%	-8.9%
CC(=O)Nc1ccc(Nc2nc(C)c([N+](=O)[O-])c(Nc3ccc(NC(C)=O)cc3)n2)cc1	?	-2.4%	-10.0%	-3.8%	13.6%	8.2%	0.0%	8.2%
COC(=O)[C@H](CCSC)NC(=O)Nc1ccc(C)c(C)c1	23.6%	0.7%	2.4%	2.1%	1.1%	-3.2%	-1.3%	-5.6%
Cn1c(C(=O)O)cnc1Sc1ncc(C(F)(F)F)cc1Cl	1.0%[46.1 µM]	2.9%	24.1%[46.1 µM]	.	.	.	-5.0%	16.0%
Cc1cccc(C)c1NC(=S)NC1CCCCC1	0.4%	-21.7%	13.4%	1.5%	6.0%	-29.7%	24.3%	-2.4%
CC1=C(C(=O)Nc2ccccc2C)C(c2ccc(C)o2)n2c(s/c(=C/c3ccccc3)c2=O)=N1 (stereo not given)	?	-2.5%	-1.4%	-0.4%	-17.1%	6.6%	-27.4%	1.8%
CC(C)[C@H](NC(=O)[C@@H]1CSCN1C(=O)OC(C)(C)C)C(=O)NCC1CCC(C(=O)O)CC1 (stereo not given in full)	-2.0%&0.2%	3.2%&-0.2%	3.8%	3.1%	-4.6%	-0.9%	3.7%	6.9%
COc1cc(C2C3=C(COC3=O)Oc3cc4c(cc32)OCO4)cc(OC)c1OC(C)=O (stereo not given)	?	.	?	.	.	.	6.7%	2.1%
CC(=O)Nc1nc(C)c(Oc2ccc(C)cc2)c(=O)[nH]1	?	0.5%	-9.8%[46.1 µM]	.	.	-1.5%	-8.7%	2.7%
